From PubChem
SARS PLP yeast: inhibitors of SARS-CoV papain-like protease in yeast; Potency, µM (doses to about 32.9 µM), for inactives: at the top dose activity, positive = growth rescue; S. cerevisiae expressing SARS-CoV PLpro, growth rescue; control for the full effect not named in the record; AID 485353; actives 0.19% (n = 330,000); also: 0% is about no effect; nearly all actives have a fitted effect of over 55% in size; growth read by luminescence after 48 h
RE007 growth inh: less growth of the S. pombe RE007 Vpr strain; Potency, µM (doses to about 92.2 µM), for the others: top-dose activity change, negative = less growth; actives 0.21% (n = 360,000); S. pombe RE007 Vpr strain, BacTiter-Glo ATP luminescence, 24 h; control for the full effect not named in the record; AID 651644; active = well fitted falling curve with a large enough effect; inconclusive = small, poorly fitted or top-dose-only effect; inactive = no such curve, though single readings can be large or run the other way;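 also: % is scaled to controls: 0 for no effect and ±100 for the full control effect; nearly all actives have a fitted effect of over 50% in size; the assay follows cell death caused by Vpr and the record does not say whether a fall means rescue or toxicity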
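Fission yeast RE007 carrying one integrated HIV-1 vpr copy, seeded at OD 0.01 in PMG+AL medium with 23 nL pinned compound. Grown 24 h at 30 degrees; viability read by BacTiter-Glo luminescence after 5 min.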
Lassa entry inh: Lassa virus entry inhibition. AID 540256. Lassa virus pseudotype entry inhibition, cell reporter; control for the full effect not named in the record. Potency, µM (series often up to 37.9 µM), inactives show at the highest dose activity change, negative = inhibition, hits mostly inhibitors. actives 1.2% (n = 300,000); active means well fitted inhibition curve with a large enough effect; inconclusive means small, poorly fitted or top-dose-only effect, or effect the other way; inactive means flat fitted curve, though single readings scatter; tested in HEK293 cells; also: % is scaled to controls: 0 for no effect and ±100 for the full control effect; nearly all actives have a fitted effect of over 50% in size; luciferase read-out
NS1 inh: inhibitors of influenza NS1 protein function; Potency, µM (series often up to 46.1 µM), inactives show at the highest dose activity, positive = more growth; S. cerevisiae slowed by influenza A NS1, growth recovery by OD600; actives 0.4% (n = 270,000); also: actives are rising curves; nearly all actives have a fitted effect of over 50% in size
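OD600 was taken as the measure of yeast growth restored by compound in an NS1-expressing S. cerevisiae strain. Cells had been washed out of glucose medium and diluted 1:100 into galactose -URA medium, pH 6.0.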
2A StopGo: lowers the luciferase signal of an FMDV 2A StopGo reporter; human cells with a luciferase reporter of 2A StopGo recoding; control for the full effect not named in the record; Potency, µM (series often up to 57.9 µM), without a hit: at the top dose signal change, negative = less light; actives 1.2% (n = 410,000); active = well fitted falling curve with a large enough effect; inconclusive = small, poorly fitted or top-dose-only effect; inactive = no such curve, though single readings can be large or run the other way; tested in HEK293T cells; also: % is scaled to controls: 0 for no effect and ±100 for the full control effect; nearly all actives have a fitted effect of over 45% in size; luciferase light after 4 h
Cruzain inh Det: cruzain (T. cruzi) inhibition with detergent. purified cruzain, Z-FR-AMC fluorescence, 0.01% Triton. actives 0.43% (n = 200,000). Potency, µM, inactives show max response, negative = inhibition, most hits filed as inhibitors; active = well fitted curve in the direction sought with a large enough effect; inconclusive = small, poorly fitted or top-dose-only effect, or another doubt; inactive = no such curve, though single readings can be large; an effect the other way counts as inactive or inconclusive;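 also: plate controls were neutral wells for no effect and buffer without enzyme for full effect; nearly all actives have a fitted effect of over 40% in size; top concentration of the series not given in the record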
Target sequence (P25779 123-467 limits assumed): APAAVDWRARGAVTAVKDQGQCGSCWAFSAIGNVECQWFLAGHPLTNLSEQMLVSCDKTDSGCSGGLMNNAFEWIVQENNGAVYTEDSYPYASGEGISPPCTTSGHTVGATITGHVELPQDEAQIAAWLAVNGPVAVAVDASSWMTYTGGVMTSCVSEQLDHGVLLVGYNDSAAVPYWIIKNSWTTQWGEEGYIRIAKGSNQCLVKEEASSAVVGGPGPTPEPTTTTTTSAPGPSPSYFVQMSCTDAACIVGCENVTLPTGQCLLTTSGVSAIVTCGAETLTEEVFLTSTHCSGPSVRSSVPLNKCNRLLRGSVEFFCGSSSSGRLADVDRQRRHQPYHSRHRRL
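Cruzain (1.5 nM) preincubated 15 min at RT with compound in 100 mM sodium acetate pH 5.5, 5 mM DTT, 0.01% Triton X-100. Reaction started with 2 uM Z-FR-AMC; AMC fluorescence (ex 360/em 450 nm) change over 60 s gave rate.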
Cruzain inh noDet: inhibitors of Trypanosoma cruzi cruzain without detergent; P25779; purified cruzain, Z-FR-AMC fluorescence, no detergent; Potency, µM, for inactives: max response, negative = inhibition, hits mostly inhibitors; actives 2.3% (n = 200,000); active = well fitted curve in the direction sought with a large enough effect; inconclusive = small, poorly fitted or top-dose-only effect, or another doubt; inactive = no such curve, though single readings can be large; an effect the other way counts as inactive or inconclusive;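 also: plate controls were enzyme without inhibitor for no effect and buffer without enzyme for full effect; nearly all actives have a fitted effect of over 40% in size; top concentration of the series not given in the record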
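Purified cruzain at 1.5 nM, pre-incubated 15 min with compound at room temperature in 100 mM sodium acetate pH 5.5, 5 mM DTT, 0.00005% Triton X-100. Reaction started with 2 uM Z-FR-AMC; AMC fluorescence increase over 60 s gives rate.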
MARV entry inh: inhibitors of Marburg virus binding or cell entry; Marburg virus pseudotyped entry inhibition, cell reporter; control for the full effect not named in the record; about a third of the inactives were read at about 46 µM; Potency, µM (series often up to 37.8 µM), without a hit: top-dose activity change, negative = inhibition, actives largely listed as inhibitors; actives 1.8% (n = 300,000); active = well fitted inhibition curve with a large enough effect; inconclusive = small, poorly fitted or top-dose-only effect, or effect the other way; inactive = flat fitted curve, though single readings scatter; tested in HEK293 cells; about a fifth of its hits are not listed in these tables; also: % is scaled to controls: 0 for no effect and ±100 for the full control effect; luciferase read-out
Starred values were filed as active, the others as inactive; ? = inconclusive; . = not tested or not shown; & = joins results of further samples; [ ] = another dose, or the depositor's remark. Unless noted, calls follow the shape of the dose curve; as a rule, active means well fitted rising curve with a large enough effect; inconclusive means small, poorly fitted or top-dose-only effect; inactive means no such curve, though single readings can be large or run the other way. Potency is read from the fitted curve at half-maximal effect. An unsorted share of the library; any-hit rate near 4.6%.

SMILES	SARS PLP yeast	RE007 growth inh	Lassa entry inh	NS1 inh	2A StopGo	Cruzain inh Det	Cruzain inh noDet	MARV entry inh
Cc1ccc2[nH]c(O)c(N=O)c2c1	0%	-6%	1%[46.1 µM]	1%	-13%	.	.	2%[46.1 µM]
O=S(=O)(c1ccc(Cl)cc1)c1ccccn1	3%	2%	28%	5%	.	-0.7%	-1%	4%
C=CCOC(=O)C1=C(C)NC(C)=C(C(=O)OCC=C)C1c1ccc(O)cc1	10%	12%[3.69 µM]	4%	-25%	-5%	-13%	11%	0%
CC(C)(C)OC(=O)CNC(=O)c1[nH]cnc1C(=O)NC1CCN(C(=O)OC(C)(C)C)CC1	5%	1%	.	13%	-24%	.	.	.
COc1ccccc1CNc1ccc(-c2nc(C)no2)cc1[N+](=O)[O-]	.	.	-13%[46.1 µM]	.	0%	-3.7%	20µM*	?
CC(=O)c1ccc(NC(=O)C2CCCN(C(=O)c3ccc(Cl)cc3)C2)cc1 (stereo not drawn)	0%	0%	2%	.	-10%	.	.	?
CCN(CC)S(=O)(=O)c1ccc2c(c1)N(CC(=O)NCC1CCCO1)C(=O)CO2 (stereo not drawn)	1%	8%	.	-5%	6%	.	.	.
CC1CC(OP(O)(=S)c2ccc(N(C)C)cc2NC(=O)c2cccs2)CC(C)(C)C1 (stereo not drawn)	-5%	?	16%[46.1 µM]	4%	1%	.	.	0%[46.1 µM]
COc1cccc(CN(C(=O)c2oc3ccccc3c2C)C2CCS(=O)(=O)C2)c1 (stereo not drawn)	.	.	-26%[46.1 µM]	.	-20%	-7.0%	7%	-19%[46.1 µM]
CCn1cc(/C=C(\NC(=O)c2ccccc2F)C(=O)NCCN2CCOCC2)c2ccccc21	-1%	-11%	.	5%	-5%	.	.	.
COc1ccc(CC(=O)Nc2ccc(S(=O)(=O)Nc3nccs3)cc2)cc1	-5%	-17%	?	15%	35%[activator]	.	.	2%[46.1 µM]
Cc1cccc2cc(CN(C(=O)c3cnccn3)C3CCCCC3)c(Cl)nc12	-9%	11%	-16%	-7%	.	-7.0%	?	?
CCOc1ccc(NC(=O)CSC2=Nc3ccccc3C3=NC(CCC(=O)NCc4ccco4)C(=O)N23)cc1 (stereo not drawn)	.	.	7%[46.1 µM]	.	36%[activator]	0.6%	5%	.
O=C1N/C(=N\N=C\c2ccccn2)SC1Cc1cccc(SC(F)F)c1 (stereo not drawn)	1%	20%	?	-11%	-17%	3.2%	?	?
CCc1ccc(C(O)(CC(C)C)C(CN2CCOCC2)c2ccccc2)cc1 (stereo not drawn)	-7%	-6%	.	2%	?	.	.	.
O=C(Nc1ccc2c(c1)OCCO2)c1ccc(Br)cc1	-3%	-12%	?	3%	2%	.	.	4µM*
Cc1cc(C(=O)N2CCCC(N3CCN(c4cccc(Cl)c4)CC3)C2)no1 (stereo not drawn)	?	-24%	8%	-16%	-20%	.	.	-28%
Cc1ccc2nc(SCC(=O)Nc3ccc(C)c([N+](=O)[O-])c3)[nH]c2c1	-13%	8%	-3%	-29%	-19%	-26%	-1%	4%
COc1ccc(/C=C2/C(=O)N=C3SCCN32)cc1	-3%	13%	-12%	-6%	-15%	-3.9%	-5%	-7%
Cc1nc(SCc2ccc(C(=O)O)cc2)c2c(C)c(C)sc2n1	3%	1%	2%	0%	2%	.	.	5%
Cc1nc(CS(=O)(=O)c2ccc(Cl)cc2)cc(N2CCOCC2)n1	-2%	-5%	-11%	4%	-8%	6.8%	1%	-3%
Cc1ccc(C)c(N2CCN(S(=O)(=O)c3ccc4c(c3)CCN4C(=O)CCC(=O)O)CC2)c1	-6%	6%	.	-2%	-9%	-11%	?	.
COc1ccccc1CNC(=O)COc1cccc(-n2cnnn2)c1	-1%	10%	15%	.	-24%	.	.	-11%
CCOC(=O)c1c(C)[nH]c(C)c1C(=O)CSc1nnc(-c2ccncc2)n1Cc1ccccc1	0%	-3%	6%	-4%	4%	-0.3%	?	5%
O=C(CN1CCOCC1)N/N=C/c1c(O)ccc2ccccc12	-2%	-3%	11µM*	-67%	-5%	.	.	?
O=C(Nc1ccccc1)/C(=C/c1ccc([N+](=O)[O-])cc1)NC(=O)c1ccco1	11%	-8%	9%[46.1 µM]	24%	12%	.	.	?
CC(C)N1C(=O)CC(Nc2ccc(N3CCOCC3)cc2)C1=O (stereo not drawn)	-8%	-7%	0%	-2%	44%[activator]	2.4%	-2%	19%
Cc1cc(C)c(S(=O)(=O)N2CCN(c3nc4c(c(=O)n(C)c(=O)n4C)n3C)CC2)c(C)c1	-2%	.	.	-4%	.	2.0%	?	5%
Cc1nonc1OCCn1c([N+](=O)[O-])cnc1C	-1%	-2%	15%	2%	-15%	.	.	17%
COc1ccc(S(=O)(=O)Nc2ccc(NC(C)=O)cc2)cc1[N+](=O)[O-]	-2%	-21%	-1%	1%	7%	.	.	5%[46.1 µM]
O=C(Cn1ncn2c(cc3sccc32)c1=O)NC1CCCC1	0%	4%	.	18%	-2%	.	.	.
Cc1cccc(OCCCSc2nc(-c3ccc(C(C)(C)C)cc3)nc3cc(=O)[nH]n23)c1C	.	.	29%[46.1 µM]	.	-8%	-11%	10µM*	.
Cc1cccc(Cc2c(C)[nH]c(=O)c(C#N)c2C)c1	0%	-11%	.	4%	-8%	.	.	.
CC(C(=O)N1CCc2ccccc21)N(C)CC(=O)Nc1ccc(F)cc1 (stereo not drawn)	1%	17%	-30%	.	-11%	.	.	-3%
O=C(Nc1c(C(=O)c2ccccc2)oc2ccccc12)c1cc(=O)c2ccccc2o1	.	.	12%[46.1 µM]	.	-3%	-0.5%	6%	-6%[46.1 µM]
O=C(c1ccc([N+](=O)[O-])cc1)N1CCN(C(=O)c2cccnc2)CC1	3%	-3%	9%	0%	4%	.	.	?
CSCCC(NC(=O)COc1ccccc1)C(=O)OCCOc1ccc(F)cc1 (stereo not drawn)	0%	-22%	-12%[46.1 µM]	.	2%	.	.	-23%
CCc1ccc(OCC(=O)N(Cc2cccs2)c2ccc(Cl)cc2)cc1	.	.	4%[46.1 µM]	.	0%	-9.1%	-6%	-23%[46.1 µM]
Cc1noc(C)c1S(=O)(=O)N(C)CC(=O)NCc1ccccc1	-1%	-2%	-1%	1%	-16%	4.2%	5%	20%
CCN(Cc1nc2ccccc2c(=O)[nH]1)Cc1cc(=O)oc2cc(C)c(C)cc12	.	1%	-2%	5%	-9%	.	.	-27%
N/C(COc1ccc(C(=O)O)cc1)=N\O	5%	-2%	3%	5%	-9%	7.9%	-9%	10%
Cc1cc(OCCN2CCOCC2)ccc1[N+](=O)[O-]	7%	4%	4%	5%	24%	-2.8%	6%	16%
COc1ccc(CN2CCN(CCc3ccccc3)C(CCO)C2)cc1Cn1cncn1 (stereo not drawn)	1%	16%	-18%[46.1 µM]	-2%	-18%	.	.	?
O=C(Oc1ccc(-c2ccccc2)cc1)N1CCCCC1	.	?	-26%	-1%	-12%	-3.9%	19%	?
CCN1CCN(C(c2cccs2)C(C)NC(=O)c2cccc(OC)c2OC)CC1 (stereo not drawn)	-5%	2%	-10%	4%	4%	4.6%	-2%	-13%
CCCCOc1ccc(C(=O)N(C)CC(=O)Nc2ccc(C)cc2)cc1	1%	3%	.	2%	-9%	.	.	.
Cc1nc2ccccn2c1/C(O)=C1\C(=O)C(=O)N(CCN2CCOCC2)C1c1cccs1 (stereo not drawn)	-7%	-2%	2%	-12%	6%	-3.5%	-5%	2%
CCOc1ncccc1C(=O)OCC(=O)c1ccc(Br)s1	0%	-6%	?	.	-3%	.	.	17%
CS(=O)(=O)c1ccccc1-c1nnc(NC(=O)c2cccc(N3C(=O)CCC3=O)c2)o1	-1%	2%	18%	.	-15%	.	.	-3%[46.1 µM]
COc1cc(/C=c2\s/c(=C\C(=O)C(C)(C)C)[nH]c2=O)cc(OC)c1OC	0%	3%	?	1%	?	.	.	?

Continuation:
SMILES	SARS PLP yeast	RE007 growth inh	Lassa entry inh	NS1 inh	2A StopGo	Cruzain inh Det	Cruzain inh noDet	MARV entry inh
COCCNC(=O)/C(C#N)=C/c1ccc(OCC(=O)NC2CCCCC2)cc1	0%	4%	.	.	-18%	.	.	3%[46.1 µM]
Cc1ccc(NC(=O)C(=O)NCCN2CCN(S(C)(=O)=O)CC2)cc1C	0%	-1%	11%[46.1 µM]	4%	1%	.	.	?
COc1ccc(C(=O)Nc2nnc(-c3ccco3)s2)cc1	10%	3%	?	-10%	.	3.5%	-15%	?
Cc1ccc(CNC(=O)CCS(=O)(=O)c2cc3c4c(c2)CCN4C(=O)CC3)cc1	.	.	12%[46.1 µM]	.	15%	0.3%	6%	.
CCn1c(C(=O)O)c(CC(=O)Nc2cccc(C(F)(F)F)c2)c2ccccc21	0%	5%	.	11%	11%	.	.	.
CCOC(=O)c1cc(-c2ccc(OC)cc2)n(CCC(=O)Nc2nc3ccc(OCC)cc3s2)c1C	.	.	1%[46.1 µM]	.	-10%	-4.2%	-6%	.
COCC(C)N1CCC(Oc2ccc(C(=O)N3CCCC3)cc2)CC1 (stereo not drawn)	?	-5%	21%	4%	-21%	.	.	-4%
CCOC(=O)c1c(N)sc(C(O)(C(F)(F)F)C(F)(F)F)c1-c1ccc(Cl)cc1	-37%	?	2%	-111%	-18%	0.7%	7%	?
CCc1ccc(OCC(=O)NC(Cc2c[nH]c3ccccc23)C(=O)O)cc1 (stereo not drawn)	.	.	24%[46.1 µM]	.	-3%	-10%	4%	1%[46.1 µM]
CC(=O)Nc1nc(SCc2cccc3ccccc23)n[nH]1	7%	6%	-1%	-30%	-22%	3.1%	?	-22%
COc1ccc(-c2cc(C(=O)Nc3c(C)n(C)n(-c4ccccc4)c3=O)no2)cc1	1%	26%	-9%[46.1 µM]	.	-7%&-10%	-4.1%	3%	?
Nc1nnc(CCOc2ccc(Cl)cc2)s1	13%	-18%	9%	5%	.	-0.8%	-14%	4%
N/C(=N\NC(=O)c1cccs1)c1cc2cc(Cl)ccc2oc1=O	0%	-9%	.	8%	-11%	.	.	.
Cc1nnc2n(-c3ccc(Cl)cc3)c(=O)c3c4c(sc3n12)CN(C)CC4	-6%	.	.	0%	.	-4.6%	-19%	-1%
